Rango dissoc inh = inhibition of RanGTP-driven Rango-importin beta dissociation | Biochemical FRET Rango-importin beta, RanGTP-induced dissociation | Potency, µM (titrated, usually from 46.1 µM), inactives show at the top dose activity change, negative = inhibition | 340,000 tested, 0.071% active | AID 540253; active means falling FRET ratio curve, often poorly fitted, with flat reads before Ran was added; inconclusive means other falling curves, or compound fluorescence or quenching; inactive means flat or rising ratio curve;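 further: potency means the concentration at half of the fitted maximal effect; % of control where 0% means no effect; nearly all actives have a fitted effect of over 45% in size; -100% = wells without RanGTP and RCC1; the record marks most hits as doubtful in a second field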
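FRET read at 45 min, room temperature: inhibitors block the CFP/YFP signal rise when RanGTP (0.6 uM Ran, 2 mM GTP, 0.2 uM RCC1) frees Rango (0.1 uM) from importin beta (0.25 uM). Pre-read after 5 min compound exposure flags interference.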
Rango complex inh = Rango-importin beta binding inhibition | Potency, µM (series often up to 92.2 µM), inactives show at the highest dose inhibition of complex formation | 340,000 tested, 0.031% active | Q14974 | Rango CFP/YFP FRET sensor + importin beta, 45 min | AID 540263; active = rising FRET ratio curve, often small or poorly fitted; inconclusive = mostly compound fluorescence or quenching in the first reads; inactive = flat curves in all reads;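 further: potency means the concentration at half of the fitted maximal effect; 0% = DMSO wells and 100% = buffer wells lacking importin beta; nearly all actives have a fitted effect of over 15% in size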
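Inhibition scored from the CFP 486 nm/YFP 530 nm FRET ratio 45 min after adding 0.125 microM importin beta to 50 nM Rango biosensor preincubated 5 min with compound (room temperature, PBS with DTT, Tween-20, BSA). No-importin wells as positive control.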
miR-21 FLuc = miR-21 reporter, rising signal | HeLa miR-21 FLuc reporter, luciferase, 48 h | Potency, µM (top dose mostly 38.3 µM), without a hit: at the highest dose reporter change, positive = more light | 340,000 tested, under 10 active | AID 2288; active = well fitted rising curve with a large enough effect; inconclusive = small, poorly fitted or top-dose-only effect; inactive = no such curve, though single readings can be large or run the other way;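 further: % of control where 0% means no effect; miR-21 action dims this reporter so a rising signal means less miR-21 action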
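Luminescence from a firefly luciferase reporter carrying a miR-21 binding site downstream, stably expressed under a CMV promoter in HeLa cells that make miR-21 endogenously, reports miRNA modulation after 48 h compound exposure up to approximately 40uM final.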
GLA inh pH 4.5 = inhibitors of human alpha-galactosidase A at pH 4.5. P06280. purified enzyme, 4-MU-alpha-Gal fluorescence, pH 4.5. activity change, negative = inhibition, % at 105 µM. 230,000 tested, under 10 active. AID 1467; inconclusive = small, poorly fitted or top-dose-only inhibition, or a rising curve; inactive = flat fitted curve, though single readings scatter; no compound was filed as active;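 further: 0% = full activity with enzyme and -100% = basal without enzyme; dose as in the result columns while the protocol names 77 µM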
Target sequence (P06280 whole entry, looked up): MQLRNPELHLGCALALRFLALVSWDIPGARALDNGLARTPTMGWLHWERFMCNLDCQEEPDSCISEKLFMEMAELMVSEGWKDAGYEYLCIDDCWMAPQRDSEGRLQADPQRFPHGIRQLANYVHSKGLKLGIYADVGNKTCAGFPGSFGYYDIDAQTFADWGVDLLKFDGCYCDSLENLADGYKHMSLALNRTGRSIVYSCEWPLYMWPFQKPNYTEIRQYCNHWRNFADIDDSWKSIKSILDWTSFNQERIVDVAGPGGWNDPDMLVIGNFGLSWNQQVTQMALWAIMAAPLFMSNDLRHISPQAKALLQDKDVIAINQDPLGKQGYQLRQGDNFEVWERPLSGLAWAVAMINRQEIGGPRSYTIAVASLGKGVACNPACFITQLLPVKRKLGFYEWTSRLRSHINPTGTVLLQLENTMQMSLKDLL
Numbers without * were called inactive; ? = inconclusive; . = not tested or not shown; & = joins results of further samples. The list is partial; the hit share may differ from the screen's.

GLA inh pH 4.5	miR-21 FLuc	Rango complex inh	Rango dissoc inh	Molecule
.	-5%	0.6%	20%	CCCC(=O)Nc1nc2c(s1)COc1ccccc1-2
-2	-13%	-1.8%	6%	O=C(Nc1ccc(N2CCCC2)c(Cl)c1)c1ccco1
.	0%&-3%	0.2%	-1%	CC1CCCN(C(=O)Cn2c(=O)oc3cc(S(=O)(=O)N4CCCCC4)ccc32)C1 (stereo unspecified)
.	10%	-1.2%	7%	COc1cccc(N2CCN(C(=O)CCC(=O)N3CCOc4ccc(C)cc43)CC2)c1
.	-8%	-0.4%	12%	CCCCc1ccc(NC(=O)CSc2nc3ncccc3[nH]2)cc1
6	4%	2.3%	-1%	CCOC(=O)c1csc(NC(=O)CSc2nnnn2-c2ccc(OC)cc2)n1
1	5%	-4.3%	-2%	CC(c1ccccc1F)n1cc(C(=O)NCCc2ccco2)nn1 (stereo unspecified)
-2	11%	6.7%	1%	COc1ccc(C(=O)c2ccc(N(C)C)cc2)c(OC)c1
.	.	-0.2%	5%	Nc1cc(=O)[nH]c(SCC(=O)Nc2cc(S(=O)(=O)N3CCCCC3)ccc2Cl)n1
2	-3%	-4.2%	10%	Cc1ccc(C(C)n2cc(C(=O)NCc3ccccn3)nn2)cc1 (stereo unspecified)
.	.	-1.3%	1%	O=C(OCC(=O)N1CCOCC1)c1ccc2ccccc2c1
-12	1%	-1.6%	-11%	CC12CCC(C(=O)Nc3ccncc3)(CC1O)C2(C)C (stereo unspecified)
-1	-1%	-2.5%	7%	CC1=Nn2c(nnc2-c2ccco2)SC1
8	-28%	-0.4%	1%	COc1nc(C)ccc1-c1noc(-c2ccco2)n1
6	0%	?	-4%	O=C(COc1ccc(-c2nnco2)cc1)N1CCN(S(=O)(=O)c2ccc3ccccc3c2)CC1
.	0%	4.1%	-8%	O=C(CNS(=O)(=O)c1ccc(Br)cc1)NCc1cccnc1
7	-20%	-2.1%	-13%	Cc1cccn2c(=O)c(C=Nc3ccccc3)c(NCc3ccco3)nc12
.	-32%	-0.1%	19%	CCCOc1cccc(C(=O)Nc2ccc3c(c2)OCCO3)c1
1	-26%	-4.1%	-8%	CC(C)COC(=O)c1cc(=O)[nH]c2ccccc12
1	-4%	-1.8%	-3%	CC(=O)Nc1ccc(S(=O)(=O)N2CCSC2C(=O)O)cc1 (stereo unspecified)
.	.	-3.4%	-7%	O=C(CCc1nc2ccccc2c(=O)[nH]1)Nc1nnc(SCc2ccccc2F)s1
6	8%	0.2%	1%	CCC(=O)N(C1=C(NC(C)C)C(=O)c2ccccc2C1=O)C(C)C
.	.	0.8%	0%	Cc1ccc(C(=O)NNC(=O)c2ccc(Br)s2)cc1S(=O)(=O)N1CCOCC1
.	.	-1.4%	-5%	O=C(NCCS(=O)(=O)N1CCCCCC1)c1ccc(F)cc1
.	0%	1.5%	13%	CCC1Sc2ccc(S(=O)(=O)CCC(=O)N3CCc4ccccc43)cc2NC1=O (stereo unspecified)
4	-36%	-0.2%	0%	C=CCN1C(=O)S/C(=C/c2ccsc2)C1=O
.	.	3.6%	-7%	COc1ccc2sc(-c3ccccc3OC)c(-c3ccc(OCCN(C)C)cc3)c2c1
.	-16%	0.0%	4%	Cc1cccc(Nc2ncnc3onc(-c4cccc(Cl)c4)c23)c1C
.	3%	3.9%	16%	CC1CCCN(C(=O)Cn2c3ccccc3c3nc4n(c(=O)c32)CCS4)C1 (stereo unspecified)
.	.	1.1%	11%	O=C(Nc1ccccc1)c1cc([N+](=O)[O-])ccc1N1CCCCC1
-1	-2%	6.8%	1%	O=C(c1cccc(Br)c1)N1CCN(C(=O)N2CCCCC2)CC1
.	0%	-0.5%	4%	CSc1ccc(CN2CCCC(N3CCN(c4ccccc4)CC3)C2)cc1 (stereo unspecified)
6	-5%	-3.4%	0%	O=C(NCc1ccccn1)C1CCN(S(=O)(=O)N2CCC3(CC2)OCCO3)CC1
-3	-1%	-0.2%	5%	Cc1cc(C)cc(Nc2nc3ccccc3c(=O)[nH]2)c1
1	1%	2.7%	16%	COc1ccc(/C=C/C(=O)NC(=S)NCC2CCCO2)cc1 (stereo unspecified)
1	4%	2.4%	-5%	COc1ccc(OC)c(NC(=O)c2ccc(CSc3nnc(C)s3)cc2)c1
-4	-5%	-0.3%	0%	CCCS(=O)(=O)N1CCC(C(=O)NCc2ccccc2Cl)CC1
-3	15%	1.0%	12%	COC(=O)c1[nH]c2c(c1C)C(=O)CC(c1cccs1)C2 (stereo unspecified)
-4	-42%	-1.2%	2%	C/C(=N\NC(=O)CSCc1ccc(Cl)cc1)c1ccc(NC(=O)c2ccccc2)cc1
1	0%	-1.5%	10%	Cn1cccc1Cc1nnc(SCC(=O)NCC2CCCO2)n1-c1ccc(F)cc1 (stereo unspecified)
-2	-17%	?	19%	Cc1ccc(NC(=O)CSc2n[nH]c(C)c2[N+](=O)[O-])cc1C
.	.	0.4%	-1%	O=C(COC(=O)c1ccc(F)c(S(=O)(=O)N2CCOCC2)c1)Nc1ccc2[nH]c(=O)[nH]c2c1
.	-21%	0.2%	-13%	COCc1nc2oc3ccc(F)cc3c(=O)c2cc1C(=O)OC
9	9%	-1.0%	15%	COc1ccc(N2CCN(c3cc(=O)n(Cc4ccc(F)cc4)c(=O)[nH]3)CC2)cc1
1	-5%	0.2%	13%	CCOC(=O)C1CCCN(c2c(N3CCN(C4CCCCC4)CC3)c(=O)c2=O)C1 (stereo unspecified)
-4	6%	5.3%	-3%	O=C(O)c1cc(S(=O)(=O)Nc2ccc(N3CCCCC3)cc2)ccc1Cl
.	.	-2.5%	?	CCN(CC(=O)Nc1ccc(NC(C)=O)cc1)C(=O)c1cc(-c2ccccc2)nn1-c1ccccc1
.	.	-3.4%	1%	COc1ccc(C(C)(C)C)cc1NC(=O)CCN1C(=O)C2CCCCC2C1=O (stereo unspecified)
4	-2%	-5.3%	-11%	O=c1cc(CN2CCN(c3ccccc3)CC2)nc2scc(-c3ccccc3)n12
.	2%	2.1%	3%	CCC1CCCCN1CCCNC(=O)CS(=O)(=O)Cc1nc(-c2cccc(OC)c2)oc1C (stereo unspecified)

5 compounds drawn at random from those above, as already listed:
GLA inh pH 4.5	miR-21 FLuc	Rango complex inh	Rango dissoc inh	Molecule
4	-36%	-0.2%	0%	C=CCN1C(=O)S/C(=C/c2ccsc2)C1=O
-4	6%	5.3%	-3%	O=C(O)c1cc(S(=O)(=O)Nc2ccc(N3CCCCC3)cc2)ccc1Cl
.	-21%	0.2%	-13%	COCc1nc2oc3ccc(F)cc3c(=O)c2cc1C(=O)OC
-2	-17%	?	19%	Cc1ccc(NC(=O)CSc2n[nH]c(C)c2[N+](=O)[O-])cc1C
.	.	-2.5%	?	CCN(CC(=O)Nc1ccc(NC(C)=O)cc1)C(=O)c1cc(-c2ccccc2)nn1-c1ccccc1

Additional records.
GLA inh pH 4.5	miR-21 FLuc	Rango complex inh	Rango dissoc inh	Molecule
-30	-52%	-3.2%	7%	CN=C(Nc1ccc(Cl)cc1)c1ccc(C(F)(F)F)cc1
-1	-43%	-2.6%	-3%	COc1ccc2[nH]c(C(=O)Nc3ccc4c(c3)OCO4)cc2c1
.	-7%	-4.2%	-16%	Cc1ccc(-c2onc3ccc(C(=O)/C=C/N(C)C)cc23)cc1
-1	0%	-2.8%	-5%	CC(C)C(NC(=O)c1ccco1)C(=O)OCc1cc([N+](=O)[O-])cc2c1OCOC2 (stereo unspecified)
-4	-2%	0.0%	-18%	Oc1c(Br)cc2oc3c(c2c1CNCc1ccccc1)CCCC3
1	9%	0.5%	-7%	O=C(Nc1ccccc1)C1CC(=O)N(c2ccc3c4c(cccc24)CC3)C1 (stereo unspecified)
9	7%	-3.2%	2%	COC(=O)CN(n1cnnc1)S(=O)(=O)c1ccccc1Cl
-5	-12%	?	?	N#CCc1c(C#N)c(N)nc(N2CCCC(CO)C2)c1C#N (stereo unspecified)
.	.	?	-27%	O=C(NCCc1ccco1)c1ccc(OCc2cn3ccccc3n2)cc1
.	-6%	0.1%	6%	COC(=O)Nc1ccc(S(=O)(=O)NNC(=O)c2c(O)c3ccccc3[nH]c2=O)cc1
.	.	-0.7%	15%	CC(C)CC1NC(=O)N(CC(=O)Nc2ccc(OCc3ccccc3)cc2)C1=O (stereo unspecified)
2	0%	1.0%	-11%	CN(CC(=O)NCc1cccc(F)c1)C(=O)c1ccco1
-5&-5&4	-2%&-2%	-0.6%	0%	CN(C)CCN(Cc1ccccc1)c1ccccn1
-1&-4&6	-5%	2.4%	-1%	CC[N+](C)(C)Cc1ccccc1Br
.	.	0.6%	0%	CN(Cc1ccco1)Cc1ccc(O)c2ncccc12
-4	1%	1.0%	1%	COc1cc(-c2cc(N3C(=O)Nc4ccccc4N3O)n[nH]2)cc(OC)c1OC
.	-2%	-0.5%	-10%	COc1ccc(S(=O)(=O)N2CCC(C(=O)NCCN3CCOCC3)CC2)cc1OC
.	.	0.2%	0%	CCOC(=O)C1CCCN(C(=O)c2ccc(-c3ccc([N+](=O)[O-])cc3)o2)C1 (stereo unspecified)
-5	1%	0.0%	2%	Cc1cc(=O)[nH]c(N/N=C/C=C/c2ccccc2)n1
-2	-18%	-0.9%	?	O=C(OC[C@@H]1CCCN2CCCC[C@H]12)c1cc2ccccc2oc1=O
-8	-10%	1.1%	0%	Cc1cccc(N(CC(=O)NCc2ccco2)C(=O)CCC(=O)Nc2nccs2)c1
4	-12%	1.7%	-1%	COCCSc1nnc(NS(=O)(=O)Cc2ccccc2)s1
-4	21%	0.5%	-3%	Cc1cccc(-c2nc(CSCC(=O)N3CCN(Cc4ccc5c(c4)OCO5)CC3)c(C)o2)c1
.	-1%	0.1%	0%	COc1cc(NC(=O)C2CCN(S(=O)(=O)c3ccc4[nH]c(=O)oc4c3)CC2)cc(OC)c1
-2	-47%	-3.9%	-28%	CCOC(=O)c1c(C)[nH]c(C=Nc2ccc(OC)cc2)c1O
.	.	-2.0%	15%	COc1ccc(NS(=O)(=O)c2ccc(C(=O)N3CCN(c4ccc(F)cc4)CC3)cc2)cc1
.	.	-5.3%	4%	O=C(C1COc2ccccc2O1)N1CCN(c2nc3c(F)cc(F)cc3s2)CC1 (stereo unspecified)
-4	-6%	-0.5%	-20%	C[C@]12C[C@H](O)[C@@H]3c4ccc(O)cc4CCC3[C@@H]1CCC2=O (stereo partly specified)
1	-4%	-6.2%	-15%	CCOC(=O)C1CCCN(S(=O)(=O)c2ccccc2)C1 (stereo unspecified)
-12	-5%	4.7%	-6%	CCOC(=O)c1ccc(NC(=O)CN2CCc3ccccc3C2)cc1
-3	-7%	0.0%	32%	CCc1nnc(NC(=O)C(CC)c2ccccc2)s1 (stereo unspecified)
.	-24%	-3.1%	1%	COc1ccc2nc(N(Cc3ccccc3)C(=O)CCNC(C)=O)sc2c1
4	-2%	0.1%	-1%	O=C(O)CCCNCc1ccccc1F
-2	5%	4.4%	-1%	COc1ccc(/C=C2\NC(=O)C(C=NCc3ccccc3)=C2O)cc1
.	.	1.3%	7%	COc1ccc(C)cc1NC(=O)CCc1ccc(S(=O)(=O)N2CCOCC2)cc1

Some of the entries so far, as labelled records:
CCOC(=O)C1CCCN(S(=O)(=O)c2ccccc2)C1 (stereo unspecified)
  GLA inh pH 4.5: 1
  miR-21 FLuc: -4%
  Rango complex inh: -6.2%
  Rango dissoc inh: -15%

CCOC(=O)c1ccc(NC(=O)CN2CCc3ccccc3C2)cc1
  GLA inh pH 4.5: -12
  miR-21 FLuc: -5%
  Rango complex inh: 4.7%
  Rango dissoc inh: -6%
